Screening results as filed in PubChem.
D2 PAM = positive allosteric modulators of human D2 dopamine receptor. P14416. DiscoveRx D2 beta-arrestin cells, luminescence, 90 min; 100% = 57 uM dopamine signal. potentiation, % (test concentration not listed). hit rate 0.23% among 360,000. AID 624464; active = potentiation of 50% or more; inconclusive = 30% to 50%; inactive = 30% or less;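 further: compound concentration not given in the record; tested on top of an EC20 dose of dopamine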
Target sequence (P14416 whole entry, looked up): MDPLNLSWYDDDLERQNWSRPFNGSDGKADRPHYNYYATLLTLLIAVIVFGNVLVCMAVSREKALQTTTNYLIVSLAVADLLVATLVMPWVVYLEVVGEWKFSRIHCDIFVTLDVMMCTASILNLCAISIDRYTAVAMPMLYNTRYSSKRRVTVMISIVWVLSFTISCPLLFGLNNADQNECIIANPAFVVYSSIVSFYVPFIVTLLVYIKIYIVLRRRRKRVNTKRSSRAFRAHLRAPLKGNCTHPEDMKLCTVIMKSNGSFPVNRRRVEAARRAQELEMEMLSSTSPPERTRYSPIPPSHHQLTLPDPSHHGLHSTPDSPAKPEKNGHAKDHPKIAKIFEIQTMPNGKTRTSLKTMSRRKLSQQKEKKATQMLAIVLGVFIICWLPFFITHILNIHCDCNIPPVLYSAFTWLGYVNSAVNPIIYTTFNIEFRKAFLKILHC
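PathHunter beta-arrestin assay in DiscoveRx D2 cells. Compounds were added with an EC20 of dopamine (50 nM final) for 90 min at 37 deg C. Luminescence was read 1 h after detection reagent, with 57 uM dopamine as the EC100 control.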
D2 ag = agonists of human D2 dopamine receptor (beta-arrestin) | P14416 | DiscoveRx PathHunter D2 beta-arrestin, luminescence, 90 min; 100% = 57 uM dopamine signal | activation, % (no concentration beside the values) | hit rate 0.084% among 360,000; in the data active = activation above about 40%; inconclusive = about 15% to 40%; inactive = below about 15%; further: compound concentration not given in the record; the text of the record calls up to 30% inactive
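Agonist mode: compounds alone added to overnight-plated D2 PathHunter cells for 90 min at 37 C, with 57 uM final dopamine (EC100) defining full response. Beta-arrestin recruitment detected by chemiluminescent reagent, read after 1 h at ambient temperature.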
TRPML1 agonist = agonists of human TRPML1 channel; hit rate 0.12% among 410,000; AID 624414; Q9GZU1; activation, % (test concentration not listed); TRPML1-expressing cells, Ca2+ dye fluorescence, FDSS; host cell line not named in the record; reference of the full effect not given here; in the data active = activation above about 50%; inconclusive = about 30% to 50%; inactive = below about 30%; further: 0% is about no effect; the text of the record puts the active cut at 80%
Target sequence (Q9GZU1 whole entry, looked up): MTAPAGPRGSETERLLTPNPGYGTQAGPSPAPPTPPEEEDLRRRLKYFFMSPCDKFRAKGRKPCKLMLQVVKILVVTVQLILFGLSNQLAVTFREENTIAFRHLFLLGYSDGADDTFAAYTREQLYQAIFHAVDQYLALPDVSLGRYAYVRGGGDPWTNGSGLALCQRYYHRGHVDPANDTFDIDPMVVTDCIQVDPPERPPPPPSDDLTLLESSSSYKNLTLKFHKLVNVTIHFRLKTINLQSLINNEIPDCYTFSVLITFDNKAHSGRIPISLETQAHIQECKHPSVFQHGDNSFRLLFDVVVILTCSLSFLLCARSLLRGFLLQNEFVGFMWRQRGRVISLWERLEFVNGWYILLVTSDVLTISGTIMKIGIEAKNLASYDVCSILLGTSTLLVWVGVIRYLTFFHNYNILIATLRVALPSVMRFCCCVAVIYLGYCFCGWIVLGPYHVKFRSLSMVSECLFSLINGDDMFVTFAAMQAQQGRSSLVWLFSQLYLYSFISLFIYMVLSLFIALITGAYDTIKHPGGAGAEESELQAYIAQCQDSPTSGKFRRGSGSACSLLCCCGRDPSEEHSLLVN
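TRPML1-DL cells, Tet-induced overnight (~16 h, 37 degrees C), loaded 45-90 min at room temperature with Ca8 no-wash calcium dye plus quencher. FDSS fluorescence: 10 s baseline, compound pin-transfer, 110 s agonist read, then EC80 54-4 (4uM final) and 110 s antagonist read.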
TRPML1 inh = human mucolipin-1 channel inhibition | Q9GZU1 | TRPML1-inducible cells, Ca2+ dye fluorescence, FDSS; stronger effect = lower value; inhibition of EC80 agonist-evoked calcium signal | activity change, negative = inhibition, % (no concentration beside the values) | hit rate 0.02% among 390,000; in the data active means activity change below about -50%; inconclusive means about -30% to -50%; inactive means above about -30%;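 further: stimulus is agonist 54-4 at its EC80 concentration; on the % scale 0 is the no-effect control and ±100 the full control effect; compound concentration not given in the record; the text of the record puts the active cut at -80%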
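Tet-induced TRPML1-DL cells loaded with Ca8 no-wash calcium dye were read kinetically on FDSS. Compound addition was followed by EC80 agonist 54-4 (4 uM final); inhibition was read over 110 s.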
PINK1 modulator = PINK1 expression modulation; hit rate 0.2% among 410,000; Potency, µM (highest dose often 76.6 µM), for the others: top-dose activation (PINK1 increase), most hits filed as activators; AID 624263; PINK1 immunofluorescence, high-content cytometry, 24 h; active = well fitted activation curve with a large enough effect; inconclusive = small, poorly fitted or top-dose-only effect; inactive = flat fitted curve, though single readings scatter; cell line not stated here;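 further: potency means the concentration at half of the fitted maximal effect; % of control where 0% means no effect; nearly all actives have a fitted effect of over 65% in size; a mitochondrial uncoupler was the plate control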
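Compound titrations (5 concentrations, 24 h) on a stable cell line; DMSO and CCCP controls. Endpoint: fixed-cell PINK1 immunofluorescence with mitochondrial, cell and nuclear markers, scanned by microplate cytometer.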
Six1-Eya2 blk = blocks human Six1 binding to Eya2; Q15475+O00167; AlphaScreen GST-Six1/His-Eya2 binding, biochemical; stronger effect = lower value; control for the full effect not named in the record; activity change, % (concentration not given with the values); hit rate 0.56% among 360,000; in the data active = activity change below about -65%; inconclusive = about -30% to -65%; inactive = above about -30%; further: on the % scale 0 is the no-effect control and ±100 the full control effect
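Six1/Eya2 binding was read as AlphaScreen signal after compounds were pinned into GST-Six1 plus His-tagged Eya2 (5X stock 250/500 nM) in pH 8.0 Tris/NaCl/TCEP buffer, beads added, then incubated 1 h, 37 C, dark.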
Numbers without * were called inactive; [ ] = dose if it differs, or a comment.

Screening COc1ccc(CC(=O)Nc2cc(Cl)ccc2N2CCCC2)cc1 returned D2 PAM 2, D2 ag -3.2, TRPML1 agonist 1.7, TRPML1 inh 22, PINK1 modulator 0.6% and Six1-Eya2 blk -5.
Screening Cc1ccc(OCc2cc(C(=O)NC(C)Cc3cccnc3)no2)cc1C (stereo not given) returned D2 PAM -8, D2 ag 6.3, TRPML1 agonist -1.5, TRPML1 inh 6, PINK1 modulator -0.8% and Six1-Eya2 blk -5.
CN(Cc1ccc(F)cc1Cl)S(=O)(=O)c1cccs1 was read as D2 PAM -9, D2 ag -4.6, TRPML1 agonist 1.0, TRPML1 inh 2, PINK1 modulator -1.2% and Six1-Eya2 blk 1.
O=C1CCCN1CCCNc1ccc(S(=O)(=O)N2CCCCC2)cn1 was read as D2 PAM -3, D2 ag 0.8, TRPML1 agonist 1.6, TRPML1 inh 7, PINK1 modulator 2.1% and Six1-Eya2 blk -7.
For CC(C(=O)Nc1ccc(N2CCOCC2)cc1)N1C(=O)c2ccccc2C1=O (stereo not given) the results were D2 PAM -7, D2 ag -0.3, TRPML1 agonist -0.3, TRPML1 inh -5, PINK1 modulator -4.3%[38.3 µM] and Six1-Eya2 blk 0.
For CCc1cc(C(=O)N/N=C/c2ccc(O)cc2)c2ccccc2n1 the results were D2 PAM 6, D2 ag 6.9, TRPML1 agonist 2.8, TRPML1 inh 12, PINK1 modulator 9.9% and Six1-Eya2 blk -24.
`COc1ccc(S(=O)(=O)N2CCC(NC(=O)N3CCOCC3)CC2)cc1` gave D2 PAM -4, D2 ag 2.1, TRPML1 agonist -0.2, TRPML1 inh -1, PINK1 modulator 1.0% and Six1-Eya2 blk 3.
For O=C(NCc1cccc(CNC(=O)c2ccco2)c1)c1ccco1 the results were D2 PAM -2, D2 ag 0.0, TRPML1 agonist 1.5, TRPML1 inh -8, PINK1 modulator 4.6%[38.3 µM] and Six1-Eya2 blk 2.
For CC(=O)c1ccc(Cc2cnc(N)s2)cc1 the results were D2 PAM -4, D2 ag 1.9, TRPML1 agonist 0.9, TRPML1 inh -7, PINK1 modulator -1.3% and Six1-Eya2 blk 0.
For S=c1[nH]nc(CCCc2n[nH]c(=S)o2)o1 the results were D2 PAM -13, D2 ag 0.5, TRPML1 agonist 1.4, TRPML1 inh 11, PINK1 modulator -1.7% and Six1-Eya2 blk 8.
`COC(=O)[C@H](CCSC)NC(=O)Cn1cnc(C(=O)Nc2ccc(C)c(C)c2)n1` gave D2 PAM -4, D2 ag -1.8, TRPML1 agonist -0.5, TRPML1 inh 0, PINK1 modulator 0.7% and Six1-Eya2 blk 5.
`Cc1ccc(CNc2ccc(-c3nc(-c4ccncc4)no3)cc2[N+](=O)[O-])cc1` gave TRPML1 agonist -0.7, TRPML1 inh 8 and PINK1 modulator 2.7%.
`O=S1(=O)N=C(N(CCO)/N=C/c2ccc(Br)cc2)c2ccccc21` gave D2 PAM 2, D2 ag 4.4, TRPML1 agonist 2.2, TRPML1 inh 9, PINK1 modulator 3.1% and Six1-Eya2 blk inconclusive.
`COc1ccc(-c2cc(C)no2)cc1S(=O)(=O)N1CCCC(C)C1` (stereo not given) gave TRPML1 agonist 0.1, TRPML1 inh -16 and PINK1 modulator 2.0%.
CCC(Sc1ncccc1C(=O)OCCN1CCCC1=O)C(=O)NCc1ccco1 (stereo not given) was read as D2 PAM -11, D2 ag -0.9, TRPML1 agonist 0.1, TRPML1 inh -8, PINK1 modulator 1.4%[38.3 µM] and Six1-Eya2 blk 3.
Screening COc1ccc(N2CCOCC2)c(NC(=O)c2cccnc2)c1 returned D2 PAM -4, D2 ag -0.4, TRPML1 agonist -0.6, TRPML1 inh -4, PINK1 modulator -1.4% and Six1-Eya2 blk 8.
`CN(C)S(=O)(=O)c1ccc(N2CCCC2)c(C(=O)Nc2nccs2)c1` gave D2 PAM 1, D2 ag 5.8, TRPML1 agonist 2.7, TRPML1 inh 7, PINK1 modulator 0.7% and Six1-Eya2 blk -3.
Screening C/C(=N\NC(=O)c1nnn(-c2nonc2N)c1CN1CCC(C)CC1)c1cccc(Br)c1 returned D2 PAM -1, D2 ag -3.8, TRPML1 agonist 0.6, TRPML1 inh 3, PINK1 modulator 1.2% and Six1-Eya2 blk 9.
`CC(=O)Nc1cccc(NC(=O)C2CCCN2C(=O)Nc2cccc(C)c2)c1` (stereo not given) gave D2 PAM -24, D2 ag -4.2, TRPML1 agonist 0.6, TRPML1 inh 8 and Six1-Eya2 blk 11.
For Cn1c(SCc2ccccc2)nnc1-c1ccc2c(c1)OCO2 the results were D2 PAM -3, D2 ag -0.3, TRPML1 agonist -0.4, TRPML1 inh -20, PINK1 modulator 0.5% and Six1-Eya2 blk 7.
Screening Cc1ccc(N=C2NC(=O)CS2)cc1C returned D2 PAM 4, D2 ag -3.5, PINK1 modulator -1.1% and Six1-Eya2 blk 3.
Screening O=C(CCc1nnc(-c2ccccc2)o1)NCC1CCN(C2CCCC2)CC1 returned D2 PAM -24, D2 ag 1.0, TRPML1 agonist 0.1, TRPML1 inh -1, PINK1 modulator 1.8% and Six1-Eya2 blk -4.
Screening COc1ccc(OC)c(NC(=O)CN2CCC(C(=O)c3ccc(C)cc3)CC2)c1 returned D2 PAM -8, D2 ag 0.0, TRPML1 agonist 5.8, TRPML1 inh 54, PINK1 modulator 1.1%[38.3 µM] and Six1-Eya2 blk -24.
For c1ccc(Oc2cccc(CN3CCOCC3)c2)cc1 the results were D2 PAM -4, D2 ag 1.0, TRPML1 agonist 1.4, TRPML1 inh -21, PINK1 modulator 16%[38.3 µM] and Six1-Eya2 blk inconclusive.
For CCOc1ccc(S(=O)(=O)Nc2ccc(S(=O)(=O)N3CCCC3)cc2)cc1 the results were D2 PAM 15, D2 ag 1.7, TRPML1 agonist 0.3, TRPML1 inh -5 and Six1-Eya2 blk 3.
Cc1cc(-c2nn(-c3ccccc3F)cc2CN2CCCC(C(N)=O)C2)c(C)s1 (stereo not given) was read as D2 PAM -5, D2 ag -2.9, TRPML1 agonist -0.3, TRPML1 inh -18, PINK1 modulator 0.4% and Six1-Eya2 blk -3.
CC(Oc1cccc(Cl)c1)C(=O)N1CCN(c2ncccn2)CC1 (stereo not given) was read as D2 PAM 0, D2 ag 0.7, TRPML1 agonist 1.0, TRPML1 inh 21, PINK1 modulator 0.6% and Six1-Eya2 blk 2.
Screening Cc1ccc(C2=Nc3cccnc3C(c3ccccc3)=NN2)cc1 returned D2 PAM -19, D2 ag -4.3, TRPML1 agonist -1.0, TRPML1 inh -6, PINK1 modulator -0.8% and Six1-Eya2 blk -7.
Screening O=C(Nc1ccon1)c1cc(-c2ccccc2)nc2ccccc12 returned D2 PAM 9, D2 ag -1.3, TRPML1 agonist 0.7, TRPML1 inh -9, PINK1 modulator 1.6% and Six1-Eya2 blk -14.
Cc1ccc(-n2nc(-c3ccccc3)cc2Nc2ccccc2N)cc1 was read as D2 PAM 21, D2 ag 5.8, TRPML1 agonist -0.2, TRPML1 inh 18, PINK1 modulator 2.4% and Six1-Eya2 blk -25.
For CCSc1ccc(-c2nn(-c3ccccc3)cc2/C=C(/C#N)C(=O)NC)cc1 the results were D2 PAM 15, D2 ag 4.4, TRPML1 agonist 0.7, TRPML1 inh 3, PINK1 modulator 16% and Six1-Eya2 blk -2.
Screening COc1ccc(-c2coc3cc4oc(=O)c(CC(=O)O)c(C)c4cc23)cc1 returned D2 PAM -3, D2 ag 2.3, TRPML1 agonist 2.1, TRPML1 inh 0, PINK1 modulator 0.6% and Six1-Eya2 blk 3.
Cc1ccccc1C(=O)N1CCN(c2ccc([N+](=O)[O-])c(N3CCOCC3)c2)CC1 was read as D2 PAM -4, D2 ag -6.2, TRPML1 agonist -0.5, TRPML1 inh 2, PINK1 modulator 2.2% and Six1-Eya2 blk -1.
`O=C(CCCCCNC(=O)N1CCn2c1nc1ccccc12)NCc1ccccc1` gave D2 PAM -3, D2 ag 6.8, TRPML1 agonist 0.2, TRPML1 inh -5, PINK1 modulator 0.2% and Six1-Eya2 blk -5.
`CCOC(=O)C1=NNC2C(=O)N(C3CCCCC3)C(=O)C12` (stereo not given) gave D2 PAM -6, D2 ag 5.8, TRPML1 agonist 1.3, TRPML1 inh -5, PINK1 modulator 1.3% and Six1-Eya2 blk -7.
For COc1ccc([N+](=O)[O-])cc1NC1CCN(C(=O)c2cccs2)CC1 the results were D2 PAM -13, D2 ag -0.8, TRPML1 agonist 1.7, TRPML1 inh -9, PINK1 modulator 0.6% and Six1-Eya2 blk -14.
For CCCCCn1c(=N)c(S(=O)(=O)c2ccc(Br)cc2)cc2c(=O)n3cccc(C)c3nc21 the results were D2 PAM 1, D2 ag -0.3, TRPML1 agonist -0.5, TRPML1 inh -12, PINK1 modulator 0.6% and Six1-Eya2 blk -2.
Screening CC1CCCCC1Nc1nc2ccc(Cl)cc2n2cnnc12 (stereo not given) returned D2 PAM -7, D2 ag 3.1, TRPML1 agonist -0.3, TRPML1 inh 4, PINK1 modulator 0.1% and Six1-Eya2 blk -3.
Screening O=C(Nc1c(C(=O)NCc2ccco2)cnn1-c1ccccc1)c1cccc(F)c1 returned D2 PAM -1, D2 ag -3.5, TRPML1 agonist -0.9, TRPML1 inh -7, PINK1 modulator -2.5% and Six1-Eya2 blk -1.
For CNC(=O)COC(=O)c1cc(SC)ccc1Cl the results were D2 PAM 1, D2 ag 1.8, TRPML1 agonist -0.5, TRPML1 inh 25, PINK1 modulator 0.7% and Six1-Eya2 blk 1.
C/C(=N\NC(=O)c1cccc([N+](=O)[O-])c1)c1cccc(NC(=O)C2CC2)c1 was read as D2 PAM -11, D2 ag -1.9, TRPML1 agonist 1.5, TRPML1 inh 11, PINK1 modulator 9.7% and Six1-Eya2 blk -4.

Among those listed so far, these contain fluorine.
CN(Cc1ccc(F)cc1Cl)S(=O)(=O)c1cccs1 was read as D2 PAM -9, D2 ag -4.6, TRPML1 agonist 1.0, TRPML1 inh 2, PINK1 modulator -1.2% and Six1-Eya2 blk 1.
Cc1cc(-c2nn(-c3ccccc3F)cc2CN2CCCC(C(N)=O)C2)c(C)s1 (stereo not given) was read as D2 PAM -5, D2 ag -2.9, TRPML1 agonist -0.3, TRPML1 inh -18, PINK1 modulator 0.4% and Six1-Eya2 blk -3.
Screening O=C(Nc1c(C(=O)NCc2ccco2)cnn1-c1ccccc1)c1cccc(F)c1 returned D2 PAM -1, D2 ag -3.5, TRPML1 agonist -0.9, TRPML1 inh -7, PINK1 modulator -2.5% and Six1-Eya2 blk -1.

For convenience, two of the compounds above.
Screening COc1ccc(CC(=O)Nc2cc(Cl)ccc2N2CCCC2)cc1 returned D2 PAM 2, D2 ag -3.2, TRPML1 agonist 1.7, TRPML1 inh 22, PINK1 modulator 0.6% and Six1-Eya2 blk -5.
Screening Cc1ccc(OCc2cc(C(=O)NC(C)Cc3cccnc3)no2)cc1C (stereo not given) returned D2 PAM -8, D2 ag 6.3, TRPML1 agonist -1.5, TRPML1 inh 6, PINK1 modulator -0.8% and Six1-Eya2 blk -5.
